Assay outcomes (PubChem)
EPAC2 antag: validation of human EPAC2 antagonists; Potency, µM (titrated, usually from 112 µM), for inactives: at the top dose activity, negative = inhibition, usual class: inhibitors; EPAC2 Rap1B BODIPY-GDP exchange, fluorescence; 16,000 compounds, 1.7% hits; Q8WZA2; active = well fitted inhibition curve with a large enough effect; inconclusive = small, poorly fitted or top-dose-only effect; inactive = no such curve, though single readings can be large or run the other way;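 note: 100% = activation by cAMP agonist control; nearly all actives have a fitted effect of over 40% in size; the record reuses the description of the EPAC1 agonist screen; inactives centre near -10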
Target sequence (Q8WZA2 whole entry, looked up): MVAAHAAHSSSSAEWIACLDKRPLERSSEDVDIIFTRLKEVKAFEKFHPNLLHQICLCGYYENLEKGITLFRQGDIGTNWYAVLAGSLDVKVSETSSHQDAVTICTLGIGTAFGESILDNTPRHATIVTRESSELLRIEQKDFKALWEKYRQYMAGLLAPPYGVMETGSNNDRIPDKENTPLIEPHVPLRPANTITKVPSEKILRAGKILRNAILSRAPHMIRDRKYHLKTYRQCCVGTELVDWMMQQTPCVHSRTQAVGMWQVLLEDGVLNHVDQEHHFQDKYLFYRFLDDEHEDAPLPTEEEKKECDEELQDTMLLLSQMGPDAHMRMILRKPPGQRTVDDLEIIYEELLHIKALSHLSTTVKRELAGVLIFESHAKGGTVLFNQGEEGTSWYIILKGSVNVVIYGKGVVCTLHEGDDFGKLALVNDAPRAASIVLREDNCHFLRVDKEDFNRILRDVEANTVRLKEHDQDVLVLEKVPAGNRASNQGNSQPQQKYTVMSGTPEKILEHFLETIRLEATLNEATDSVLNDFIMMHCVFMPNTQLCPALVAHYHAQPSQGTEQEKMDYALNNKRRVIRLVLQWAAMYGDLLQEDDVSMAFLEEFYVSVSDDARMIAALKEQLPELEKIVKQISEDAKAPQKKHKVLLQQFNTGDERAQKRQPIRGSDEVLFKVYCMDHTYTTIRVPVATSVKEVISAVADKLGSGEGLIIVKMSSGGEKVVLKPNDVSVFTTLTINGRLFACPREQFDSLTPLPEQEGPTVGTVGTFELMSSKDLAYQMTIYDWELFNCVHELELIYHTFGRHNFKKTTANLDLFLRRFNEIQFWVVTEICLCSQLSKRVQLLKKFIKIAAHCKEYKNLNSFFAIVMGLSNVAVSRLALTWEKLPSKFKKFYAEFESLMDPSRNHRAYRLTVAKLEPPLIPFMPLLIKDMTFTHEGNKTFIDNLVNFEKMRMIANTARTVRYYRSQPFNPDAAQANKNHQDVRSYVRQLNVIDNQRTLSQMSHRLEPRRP
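Fluorescent exchange read-out: 100 nM EPAC2 with 250 nM RAP1B–BODIPY-GDP and 50 uM GDP; BODIPY-GDP release lowers fluorescence. Read at 480/540 nm every 5 min for 30 min at room temperature; normalized to 6.5 mM cAMP.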
Numbers without * were called inactive; ? = inconclusive; & = joins results of further samples; [ ] = another dose, or the depositor's remark. Potency is the fitted concentration of half-maximal effect. This is a subset; the hit share may differ from the screen's.

SMILES	EPAC2 antag
COCc1c(C(=O)N2CCN(C3CCCC3)CC2)cnn1-c1nccc(-c2cc(C)sc2C)n1	-9.8%
O=C(O)CC/C=C\C[C@@H]1CO[C@H](c2ccccc2Cl)O[C@@H]1c1ccccc1O	-6.2%
CCCc1c2oc(C(=O)O)cc(=O)c2cc2c(=O)cc(C(=O)O)n(CC)c12	2.8%
C=C[C@@H](C1=CC(=O)C(OC)=C(OC)C1=O)c1ccccc1	9.1%
NC(=O)CCCCn1ccc(NC(N)=NCC(F)(F)F)n1	-2.6%&-25.1%
COc1ccc(-c2nc3cnc(N4CCNCC4)nc3n(-c3ccccc3)c2=O)cc1	-4.6%
Cc1nc2cnc(Oc3cccc(Cl)c3)nc2n(CCc2ccccc2)c1=O	-26.7%
Clc1cccc(Nc2nnc(-c3ccccc3)c3ccccc23)c1	?
CCCCCCCCCCCCCCCC[n+]1ccc(/C=C/c2c(C)[nH]c3ccccc23)cc1	?
CNS(=O)(=O)Cc1ccc2[nH]cc(CCN(C)C)c2c1	-10.7%
C=CC[C@H](N)C(=O)O	-3.0%
COC(=O)C[C@H]1c2cc(F)ccc2S(=O)(=O)N1c1ccccc1	?
O=c1c(-c2ccccc2)nc2cnc(N3CCOCC3)nc2n1CCc1ccccc1	-13.9%
COc1cc2cc3c4c(cc(OC)c(OC)c4c2cc1OC)CCN3C	50.1µM*
Cn1c(=O)c2c(ncn2CCOC(=O)C(C)(C)Oc2ccc(Cl)cc2)n(C)c1=O	3.4%
CN1C(=O)CC(CC(=O)N2CCCCC2CCO)(c2cccc(F)c2)C1=O (centres undefined)	-8.9%
CC(C)[C@@H]1NC(=O)[C@H](Cc2ccccc2)NC(=O)[C@@H](CC(=O)O)NC(=O)CNC(=O)[C@H](CCCNC(=N)N)NC1=O	-3.6%
C=C[C@@H]1c2c(F)cccc2N(S(=O)(=O)c2ccc(C)cc2)[C@H](c2ccc(C(=O)OC)cc2)C1(C#N)C#N	?
COc1ccc2c(c1)CCC1[C@@H]2CCC2(C)[C@@H](NCCCCCCN3C(=O)C=CC3=O)CC[C@@H]12 (some centres undefined)	-23.6%
C=C[C@]1(C)C[C@@H](OC(=O)CO)[C@]2(C)[C@H](C)CC[C@]3(CCC(=O)[C@H]32)[C@@H](C)[C@@H]1O	25.7%
Cc1cc(=O)n(-c2ccccc2)n1C	43.9%&-9.0%[activator]
CCCCCCCC/C=C/CCCCCCCCOP(=O)([O-])OCC[N+](C)(C)C	-28.4%
COc1cccc(-c2cncnc2Nc2ccccc2)c1	-20.4%
CCCCCCCCCCCCCCCCCC(=O)OC[C@@H](O)[C@H]1OC[C@H](O)[C@H]1O	-13.9%
CN(C)c1ccc(-c2ccc3ncnc(NC4CC4)c3c2)cc1	-9.0%

More structures follow:
SMILES	EPAC2 antag
O=c1c(-c2ccc(F)cc2)nc2cnc(N3CCOCC3)nc2n1-c1ccccc1	-20.4%
O=C(CCc1c[nH]c2ccccc12)N1CCC(n2c(C3CCCO3)nc3cc(C(F)(F)F)ccc32)CC1 (centres undefined)	-27.1%
Cc1ccc(S(=O)(=O)O)cc1C	-6.2%
COc1ccc(-c2coc3cc(O)cc(O)c3c2=O)cc1	?
O=C(c1cc(C(F)(F)F)cc(C(F)(F)F)c1)N1CCC[C@@]2(CCN(c3ccncc3)C2)C1	?
CC(C)(C)NC[C@H](O)c1ccc(O)c(CO)c1	-9.1%
c1cncc(-c2ccc3ncnc(NCCN4CCOCC4)c3c2)c1	-16.1%
CN(Cc1ccco1)c1ncncc1-c1ccc2c(c1)OCO2	-37.5%
COc1ccc(NC(=O)[C@@H]2CC=C[C@@H]3CCN(C4CCCCC4)C(=O)[C@@H]32)cc1	-20.5%
COC(=O)N1CCC[C@@]2(CCN(Cc3nccs3)C2)C1	-21.8%
COC(=O)N1CCC2(CC1)CCN(c1ccncc1)CC2	-13.4%
CCCCC(F)(F)[C@@]1(O)CC[C@H]2[C@H](CC(=O)[C@@H]2CCCCCCC(=O)O)O1	7.5%
COc1ccc2[nH]cc(CCNc3nc(-c4ccoc4)nc4ccccc34)c2c1	-19.0%
CC(NCCc1ccc(O)cc1)C(O)c1ccc(O)cc1 (centres undefined)	-7.9%
O=C(Nc1ccccc1)N1CCC2(CCNCC2)CC1	-15.5%
CN1CCN(c2ncc3nc(-c4cccc(C#N)c4)c(=O)n(C)c3n2)CC1	5.3%
CCOC(=O)c1ncn2c1CN(C)C(=O)c1cc(F)ccc1-2	2.9%&-12.8%&9.7%
O=C(NCCc1nnc2n1CCN(Cc1c(F)cccc1F)CC2)c1ccc(F)cc1	-22.0%
CC1CCC2=C1C[C@H](C(C)(C)O)CC[C@@H]2C (some centres undefined)	-17.5%
CN(C)C(=O)c1ccc(-c2ccc3ncnc(NCc4cccs4)c3c2)cc1	?
COc1cc(-c2ccc(Cl)cn2)cc2c1OCCN(C(=O)c1ccccc1-n1cccn1)C2	?
CCCCC(=O)OCC(=O)[C@]1(O)Cc2c(O)c3c(c(O)c2[C@@H](O[C@H]2C[C@H](NC(=O)C(F)(F)F)[C@H](O)[C@H](C)O2)C1)C(=O)c1c(OC)cccc1C3=O	-3.6%
OCc1cc([C@@H](O)CNCCCCCCOCCCCc2ccccc2)ccc1O	?
O=C(N[C@H]1CCC(=O)N(CCSc2ccc(Br)cc2)CC1)OCc1ccccc1	?
O=c1[nH]c2ccccc2c2ccccc12	1.1%

Going on with the list.
SMILES	EPAC2 antag
C=CCN1[C@@H](Cc2ccccc2)COCCS1(=O)=O	?
CCCCC[C@H]1CN(C2CCCCC2)C(=O)[C@@H]1CC(=O)NCc1ccccc1	?
CC(=O)Nc1ccc(SC[C@H](C)CN2CC[C@H](C(C)(C)C)CCC2=O)cc1	56.2µM*
CCCCCCCCCCCCC/C=C/[C@@H](O)[C@H](CO)NC(=O)CCCCCCCCCCCCCCC	-9.9%[11.4 µM]
CN(C)c1ccc(-c2cc(NCc3cccnc3)ncn2)cc1	-11.9%
COC(=O)C1=C(C)NC(C)=C(C(=O)OCCN(C)Cc2ccccc2)C1c1cccc([N+](=O)[O-])c1 (centres undefined)	?
CO[C@@H]1[C@H](OC(=O)/C=C/C=C/C=C/C=C/C(=O)O)CC[C@]2(CO2)[C@H]1[C@@]1(C)O[C@@H]1CC=C(C)C	-4.4%
CNCC[C@H](Oc1ccccc1OC)c1ccccc1	-14.7%
CO[C@H]1C=CO[C@@]2(C)Oc3c(C)c(O)c4c(O)c(cc(O)c4c3C2=O)NC(=O)/C(C)=C\C=C/[C@H](C)[C@H](O)[C@@H](C)[C@@H](O)[C@@H](C)[C@H](OC(C)=O)[C@@H]1C	-15.9%
O=C(Oc1ccccc1)N1CCC2(CCCN(c3ccccn3)C2)CC1	-29.1%
CCCCN1CC[C@H]2C=CC[C@@H](C(=O)Nc3nccs3)[C@H]2C1=O	-10.7%
N#C/C(=C\c1ccc(O)c(O)c1)C(=O)NCCCNC(=O)/C(C#N)=C/c1ccc(O)c(O)c1	-6.1%
O=c1c(CCc2ccccc2)nc2cnc(N3CCOCC3)nc2n1-c1ccccc1	-8.8%
N#Cc1ccccc1-c1ccc2ncnc(N3CCNCC3)c2c1	-17.5%
COc1ccc(/C=C2\NC(=O)[C@@H]3Cc4ccccc4CN3C2=O)cc1	-10.4%
O=C(O)CC/C=C\CC[C@@H]1[C@@H](N2CCCCC2)[C@@H](O)C[C@@H]1OCc1ccc(-c2ccccc2)cc1	3.4%
COC(=O)c1c(C)cc(OC)cc1O	?
CCN(CC)CCOC(=O)c1ccc(N)cc1Cl	-4.3%
Cn1c(=O)c(-c2cc(F)cc(F)c2)nc2cnc(Oc3cccc(Cl)c3)nc21	-12.0%
Cc1ncc2c(c1CNC(=O)c1cncs1)CCN(C(=O)c1ccc(C(C)(C)C)cc1)C2	-11.8%
c1ccc(Nc2nc(-c3ccc4c(c3)OCO4)nc3ccccc23)cc1	-26.2%
CCNCCCNCCCCNCCCNCC	-19.3%
COc1ccc2ccccc2c1CN1CCc2nnc(CNC(=O)c3cccc(F)c3)n2CC1	-0.2%
Cc1ncc2c(c1CNC(=O)c1ccc3c(c1)OCO3)CCN(C(=O)c1cnsn1)C2	-4.6%
COc1ccc(C(=O)N2CCC3(CCCN(C(=O)Nc4cccc(C#N)c4)C3)CC2)cc1	-24.7%

Structural class, the compounds so far with a cyano group (five)
SMILES	EPAC2 antag
C=C[C@@H]1c2c(F)cccc2N(S(=O)(=O)c2ccc(C)cc2)[C@H](c2ccc(C(=O)OC)cc2)C1(C#N)C#N	?
CN1CCN(c2ncc3nc(-c4cccc(C#N)c4)c(=O)n(C)c3n2)CC1	5.3%
N#C/C(=C\c1ccc(O)c(O)c1)C(=O)NCCCNC(=O)/C(C#N)=C/c1ccc(O)c(O)c1	-6.1%
N#Cc1ccccc1-c1ccc2ncnc(N3CCNCC3)c2c1	-17.5%
COc1ccc(C(=O)N2CCC3(CCCN(C(=O)Nc4cccc(C#N)c4)C3)CC2)cc1	-24.7%

Next results:
SMILES	EPAC2 antag
Nc1ccn(C2CO[C@H](CO)O2)c(=O)n1 (some centres undefined)	35.0%[activator]
CC(=O)OCC1=C(C(=O)O)N2C(=O)[C@@H](NC(=O)CSc3ccncc3)[C@H]2SC1	-27.2%
CCCCCCCC/C=C\CCCCCCCC(=O)OC[C@H](CO)OC(C)=O	-12.2%[11.4 µM]
CCCCCCC(=O)O[C@H]1CC[C@H]2[C@@H]3CCc4cc(O)ccc4[C@H]3CC[C@]12C	-19.1%
COc1ccc(CN2CCCC(c3nc(-c4ccncc4)ncc3-c3ccccc3)C2)cc1OC (centres undefined)	4.3%
O=C1CCN(Cc2ccc([N+](=O)[O-])cc2)CCN1[C@H](CO)Cc1ccccc1	-7.0%
Cc1ccc(CN2[C@@H](Cc3ccccc3)C(=O)CS2(=O)=O)cc1	7.3%
CCN(CC)c1ccccc1/C=C/[n+]1ccc(CCCCI)c2ccccc21	56.2µM*
Cc1noc(C)c1-c1cc(N2CCNCC2)ncn1	-17.6%
COc1ccc(N2C(=O)[C@@H]3C[C@H]2CN3Cc2cccn2-c2ccc(Cl)cn2)c(C)c1	?
CC(CCCCC(=O)Nc1ccc(C(F)(F)F)cc1)NCCc1cnc[nH]1 (centres undefined)	-11.1%
COCCn1c(=O)c(C)nc2cnc(Nc3cccc(OC)c3)nc21	-9.1%
CC(=O)c1ccc(F)c(-c2cc(C)cc3c2OC(CNC(=O)Cc2c[nH]c4ccccc24)C3)c1 (centres undefined)	?
Oc1ccc2ccccc2c1SSc1c(O)ccc2ccccc12	-20.2%
CC(=O)C1CCC2C3CC=C4CC(O)CC[C@@]4(C)C3CC[C@]12C (some centres undefined)	-7.6%
Cn1cccc1C(=O)N1CCC2(CC1)CN(C(=O)Nc1ccccc1)C2	-24.0%
CC[N+](C)(C)c1cccc(O)c1	-18.6%
N[C@@H](Cc1ccccc1)C(=O)O	-6.3%
NCCCC[C@H](NC(=O)[C@@H]1CCCN1C(=O)[C@@H]1CSSC[C@H](N)C(=O)N[C@@H](Cc2ccccc2)C(=O)N[C@@H](Cc2ccccc2)C(=O)N[C@@H](CCC(N)=O)C(=O)N[C@@H](CC(N)=O)C(=O)N1)C(=O)NCC(N)=O	58.0%[activator]
CCOc1ccc(S(=O)(=O)O)c2cccnc12	3.4%
O=C(O)C(O)[C@@](O)(Cc1ccc(O)cc1)C(=O)O (some centres undefined)	0.1%
CCCCCCCCCCCCCCCC(=O)OC(CC(=O)O)C[N+](C)(C)C (centres undefined)	-2.0%&-22.9%
O=C(c1ccncc1)N1CCC2(CC1)CN(c1cccc(-c3ccccc3)c1)C2	-40.8%
CC(C)CN1CCC2(CC1)CCN(C(=O)c1ccco1)CC2	-9.0%
Cn1c(=O)c(-c2ccccc2)nc2cnc(Nc3ccccc3)nc21	-2.5%

3 structures out of the list, arranged by heavy-atom count, high to low:
SMILES	EPAC2 antag
CC(C)CN1CCC2(CC1)CCN(C(=O)c1ccco1)CC2	-9.0%
Nc1ccn(C2CO[C@H](CO)O2)c(=O)n1 (some centres undefined)	35.0%[activator]
N[C@@H](Cc1ccccc1)C(=O)O	-6.3%

(more compounds)
SMILES	EPAC2 antag
CC(=O)NCCNc1ncnc2ccc(-c3ccoc3)cc12	-12.2%
Cc1ccn(CCC(=O)N2CCOc3ccc(C(O)C4CCCCC4)cc3C2)n1 (centres undefined)	?
CCCCOc1cc(C(=O)NCCN(CC)CC)c2ccccc2n1	1.2%
CCCCCCCCCCC(C)(C)C(=O)Nc1c(OC)cc(OC)cc1OC	-29.2%
O=C(c1cc(C(F)(F)F)cc(C(F)(F)F)c1)N1CCC2(CC1)CN(c1ccncc1)C2	-36.2%
Cc1cccc(CNc2ncnc3ccc(-c4cccc(C#N)c4)cc23)c1	-10.4%
C[N+](C)(CCOc1ccccc1)Cc1cccs1	-20.0%
CSc1ccccc1C(=O)NCC1Cc2cc(F)cc(-c3cnccn3)c2O1 (centres undefined)	-5.3%
COc1cc(C2=N/C(=C\c3ccccc3)C(=O)O2)cc(OC)c1OC	18.9%
CS(=O)(=O)N1CCC[C@@]2(CCN(c3ccccc3)C2)C1	-14.8%
CC1(C)SC2C(NC(=O)C(N)c3ccccc3)C(=O)N2C1C(=O)O (centres undefined)	-29.2%
O=C1c2ccccc2C(=O)c2c1ccc(O)c2O	?
Cc1ccc2oc(-c3ccccc3)cc(=O)c2c1	?
COC(=O)[C@H]1[C@@H]2C[C@H]3c4[nH]c5ccccc5c4CCN3C[C@@H]2CC[C@@H]1O	-15.3%
O=C(CCc1ccc(O)cc1)c1c(O)cc(O)cc1O[C@@H]1O[C@H](CO)[C@@H](O)[C@H](O)[C@H]1O	-28.0%
Cn1cccc1C(=O)N1CCC[C@@]2(CCN(C(c3ccccc3)c3ccccc3)C2)C1	?
CN1C(=O)CC[C@H]1c1cccnc1	2.0%&18.6%
Cc1cnc(CNc2ncnc3ccc(-c4ccccc4C)cc23)cn1	?
